Assay outcomes: PubChem BioAssay, National Center for Advancing Translational Sciences (NCATS)
VACV Venus inh: inhibitors of vaccinia virus (Venus reporter) | Vaccinia virus Venus reporter expression, fluorescence | Potency, µM (series often up to 36.5 µM), for inactives: top-dose activity change, negative = inhibition, hits mostly inhibitors | 330,000 compounds, 0.46% hits | AID 720580; active means well fitted inhibition curve with a large enough effect; inconclusive means small, poorly fitted or top-dose-only effect; inactive means no such curve, though single readings can be large or run the other way; tested in A549 cells; also: nearly all actives have a fitted effect of over 30% in size; inactives centre near -10
Vaccinia mCherry: vaccinia inhibition (mCherry reporter). Potency, µM (highest dose often 36.5 µM), inactives show at the highest dose activity change, negative = inhibition, usual class: inhibitors. Vaccinia virus mCherry reporter infection, fluorescence; about a quarter of the inactives have no number. AID 720579. 310,000 compounds, 0.63% hits; active = well fitted inhibition curve with a large enough effect; inconclusive = small, poorly fitted or top-dose-only effect; inactive = no such curve, though single readings can be large or run the other way; tested in A549 cells; also: nearly all actives have a fitted effect of over 35% in size; inactives centre near -10
An asterisk follows results filed as active; i = inactive; ? = inconclusive; . = not tested or not shown; & = joins results of further samples; [ ] = dose if it differs, or a comment. % is scaled to controls: 0 for no effect and ±100 for the full control effect; potency is read from the fitted curve at half-maximal effect.

SMILES | VACV Venus inh | Vaccinia mCherry
CCOC(=O)C1CCCN(CC(=O)Nc2ccc(C(=O)Nc3ccccc3OC)cc2)C1 (stereo not drawn) | -13% | -1%
CC(NC(=O)Nc1ccccc1)C(c1cccs1)N1CCN(c2ccccc2)CC1 (stereo not drawn) | -8% | i
CCCCn1c(N)c(N(CCOC)C(=O)CSCc2c(C)noc2C)c(=O)[nH]c1=O | -8% | i
Cc1cccnc1NC(=O)CCNS(=O)(=O)c1ccc2c(c1)c(=O)n(C)c(=O)n2C | -13% | -5%
O=C(CCSCc1cccc(Cl)c1)NCc1ccccc1Cl | -10% | -7%
CCC(=O)c1cc(-c2nc3ccccc3n2C)n(C)c1 | -26% | -10%
Cc1cc(=O)oc2cc(OCC(=O)Nc3nnc(C4CC4)s3)ccc12 | -7% | -5%
COc1ccc2c(c1)C1CC(C)(NC(=O)C1S(=O)(=O)c1ccc(F)cc1)O2 (stereo not drawn) | -19% | i
COc1cccc(NC(=O)CN(C)S(=O)(=O)c2ccc3c(c2)CCC(=O)N3)c1 | -3% | i
Cc1ccccc1Nc1ncnc2c1cnn2-c1ccccc1 | -10% | i
CCOC(=O)c1cnc2ccccc2c1Nc1cc(C(=O)O)ccc1C | 0% | -1%
CC(C(=O)O)N1c2cccc3cccc(c23)S1(=O)=O (stereo not drawn) | -12% | i
COCCN1C(=O)C(CC(=O)Nc2ccc(C(C)=O)cc2)SC1=Nc1ccccc1 (stereo not drawn) | 0%&-15% | -18%&-20%
Cc1ccc(-c2nn(CC(=O)NC3CCCCC3)c3c2cnc2ccccc23)cc1 | 5% | -7%
COCCCNC(=O)c1ccccc1-c1cc(C)no1 | -7% | -7%
Cc1cc(C)n(-c2nc3c(c(=O)[nH]c(=O)n3C)n2Cc2cccc(Br)c2)n1 | -6% | .
OC(CNC1CCCC1)COc1ccc(Cl)cc1 (stereo not drawn) | -11% | i
O=C(NCCOc1ccccc1F)C1CCC(=O)N(CCc2cccc(F)c2)C1 (stereo not drawn) | -18% | -18%
COc1ccc(/C=N/NC(=O)c2sc3nc(C)cc(C)c3c2N)cc1 | -17% | i
O=C(Cc1cccc2ccccc12)N/N=C/c1ccc(Sc2nc3ccccc3s2)o1 | ? | ?
O=C(COC(=O)C1CCN(S(=O)(=O)c2cccs2)CC1)Nc1ccc(F)cc1Cl | -3% | -14%
COC(=O)CN(C)C(=O)c1cccc(OC2CCN(S(=O)(=O)N(C)C)CC2)c1 | -7% | -26%
COc1ccc(C(=O)c2ccc(CC(=O)O)s2)cc1 | -1% | i
COc1cccc(OCc2nc3ccccc3n2CCOc2ccccc2)c1 | -9% | -6%
CCOc1ccc(C(=O)NCCCCNC(=O)c2ccc(OCC)cc2)cc1 | -8% | -14%
CCOC(=O)CSC1=NN2CCS(=O)(=O)N=C2S1 | -10% | 1%
O=C(O)c1ccccc1OC(=O)C12CC3CC(CC(C3)C1)C2 | 6% | 10%
Cc1oc(-c2cccc(NC(=O)c3ccccn3)c2)nc1CNC(=O)C#Cc1ccccc1 | -16% | -3%
COCC(=O)NNS(=O)(=O)c1ccccc1[N+](=O)[O-] | -10% | -11%
COc1ccc(CCN2C(=O)CC(N3CCOCC3)C2=O)cc1 (stereo not drawn) | -7% | i
Cc1nn(C)c(C)c1NC(=O)CN1CCC(O)(c2ccc3c(c2)OCO3)CC1 | -13% | -13%
Cc1nnc(SCC(=O)Nc2cc(C(N)=O)cc(C(N)=O)c2)n1-c1ccccc1 | 1% | -20%
Cc1cc(C)c(S(=O)(=O)Nc2ccc(-c3cn4ccccc4n3)cc2)c(C)c1 | -26% | .
Cc1cc(C)nc(NC(N)=S)n1 | -4% | -11%
COc1cc(OC)c(N(C)S(=O)(=O)c2cccc(C(=O)OCC(=O)c3c[nH]c4ccccc34)c2)cc1Cl | -25% | -25%
CC(=O)CCS(=O)(=O)c1ccc(NC(C)=O)cc1 | -15% | -10%
CCN(c1ccccc1)C1(O)C(=O)c2ccccc2C1=O | 3% | -22%
O=C1NC(NS(=O)(=O)c2ccccc2)(C(F)(F)F)C(=O)N1c1cccc(Cl)c1 (stereo not drawn) | -11% | i
Cc1nc2ccc(NC(=O)N3CCSCC3)cc2nc1C | -6% | -10%[1.46 µM]
CC(C)(C)c1ccc(C(=O)N2CCCCCC2=O)cc1 | -30% | -10%
CCOC(=O)/C=C/C(=O)N1CCN(C(=O)/C=C/C(=O)OCC)CC1 | -4% | -30%
CC12CCC(=O)N1C(C(=O)Nc1ccc(S(=O)(=O)N3CCCCC3)cc1)CS2 (stereo not drawn) | -19% | -2%
CC(=O)Nc1ccc(S(=O)(=O)N(C)CC(=O)NC2CCCC(C)C2C)cc1 (stereo not drawn) | -11% | i
COc1ccc(C/C(N)=N/OC(=O)C(c2ccccc2)c2ccccc2)cc1OC | -16% | -17%
C=C(C)CNC(=O)CCc1nnc(Cc2cccc(C(F)(F)F)c2)o1 | -13% | i
COc1cccc(C(C)(O)c2nc(-c3cccc(C(F)(F)F)c3)cs2)c1 (stereo not drawn) | 10% | -20%
Cn1cnnc1SCC(=O)Nc1ccc2nc(SCc3ccccc3F)sc2c1 | -14% | -14%
Cc1cccc(-c2ccc3c(c2)C2CC3CCN2C)c1 (stereo not drawn) | -13% | ?
O=C(CN1C(=O)C2CC=C(Cl)CC2C1=O)NCc1ccccc1 (stereo not drawn) | 4% | .
Clc1ccc2[nH]c(-c3ccccc3)cc2c1 | -27% | .

Next part
SMILES | VACV Venus inh | Vaccinia mCherry
Cc1cc(Nc2ccccc2)n(C(=O)c2ccc(N)cc2)n1 | ? | .
CCCCc1nnc(NC(=O)Cn2cnc3ccccc3c2=O)s1 | -5% | i
C(=C\c1nnc2c3ccccc3ncn12)/c1ccccc1 | ? | ?
O=c1c2ccccc2nc2n1C(CSc1ccc(Br)cc1)CN2 (stereo not drawn) | 1% | .
CN1C(=O)C2(C(C#N)=C(N)Oc3c2oc(CO)cc3=O)c2ccccc21 (stereo not drawn) | -10% | -21%
CC(NC(=O)c1cnccn1)c1ccc(S(N)(=O)=O)cc1 (stereo not drawn) | -5% | -14%
C/C(=N\N1CCCCC1c1cccnc1)c1c(O)n(C2CCCCC2)c(=S)[nH]c1=O (stereo not drawn) | -16% | ?
Cc1ccc(C(=O)NCC(=O)N(C)Cc2cccc(F)c2)s1 | -20% | -8%
C=CC(=O)N1C/C=C\C(c2ccc(OC)cc2)N(Cc2ccc(F)cc2)C(=O)C1 (stereo not drawn) | 0.89µM* | ?
CC(=O)NC1C(OCCOc2ccc(Cl)cc2C)OC(CO)C(O)C1O (stereo not drawn) | -6% | -14%
COc1cccc(C(=O)c2cn(CC(=O)Nc3cccc(C)c3C)c3nc(C)ccc3c2=O)c1 | -3% | -7%
O=C(Nc1nc(-c2ccccc2)cs1)C1CCCN(S(=O)(=O)c2ccccc2)C1 (stereo not drawn) | -23% | ?
COc1ccc(C(=O)N/N=C2/SCC(=O)N2Cc2ccc3c(c2)OCO3)cc1OC | -10% | -8%
O=C(Nc1ccccc1)C(c1ccccc1)c1ccccc1 | -5% | i
CCOC(=O)c1cccc(NS(=O)(=O)c2cc(-c3cnc(C4CC4)o3)ccc2C)c1 | -5% | -20%
CC[C@]12c3[nH]c4cc(CCC(=O)N(C)C)ccc4c3CCN1C(=O)[C@@H](CC(=O)NCCN1CCOCC1)C[C@@H]2C(=O)N1CCN(C(=O)C2CC2)CC1 | 7% | -14%
CC(NC(=O)C(=O)NCCC1=CCCCC1)c1ccccc1 (stereo not drawn) | -20% | i
CCOc1cc(C=C2C(=O)NC(=O)NC2=O)ccc1OS(=O)(=O)c1ccccc1 | -18% | .
COc1cccc(C(=O)N2CCN=C2SC)c1 | -10% | -9%
CCOC(=O)c1ccc(-c2cccc(-c3cc(=O)oc4cc(OC)cc(OC)c34)c2)cc1 | 0% | i

An excerpt of these results, comma-delimited.
SMILES,VACV Venus inh,Vaccinia mCherry
Cc1cc(Nc2ccccc2)n(C(=O)c2ccc(N)cc2)n1,?,.
CCCCc1nnc(NC(=O)Cn2cnc3ccccc3c2=O)s1,-5%,i
C(=C\c1nnc2c3ccccc3ncn12)/c1ccccc1,?,?
O=c1c2ccccc2nc2n1C(CSc1ccc(Br)cc1)CN2 (stereo not drawn),1%,.
CN1C(=O)C2(C(C#N)=C(N)Oc3c2oc(CO)cc3=O)c2ccccc21 (stereo not drawn),-10%,-21%
CC(NC(=O)c1cnccn1)c1ccc(S(N)(=O)=O)cc1 (stereo not drawn),-5%,-14%
C/C(=N\N1CCCCC1c1cccnc1)c1c(O)n(C2CCCCC2)c(=S)[nH]c1=O (stereo not drawn),-16%,?
Cc1ccc(C(=O)NCC(=O)N(C)Cc2cccc(F)c2)s1,-20%,-8%
C=CC(=O)N1C/C=C\C(c2ccc(OC)cc2)N(Cc2ccc(F)cc2)C(=O)C1 (stereo not drawn),0.89µM*,?
CC(=O)NC1C(OCCOc2ccc(Cl)cc2C)OC(CO)C(O)C1O (stereo not drawn),-6%,-14%
COc1cccc(C(=O)c2cn(CC(=O)Nc3cccc(C)c3C)c3nc(C)ccc3c2=O)c1,-3%,-7%
O=C(Nc1nc(-c2ccccc2)cs1)C1CCCN(S(=O)(=O)c2ccccc2)C1 (stereo not drawn),-23%,?
COc1ccc(C(=O)N/N=C2/SCC(=O)N2Cc2ccc3c(c2)OCO3)cc1OC,-10%,-8%
O=C(Nc1ccccc1)C(c1ccccc1)c1ccccc1,-5%,i
CCOC(=O)c1cccc(NS(=O)(=O)c2cc(-c3cnc(C4CC4)o3)ccc2C)c1,-5%,-20%
CC[C@]12c3[nH]c4cc(CCC(=O)N(C)C)ccc4c3CCN1C(=O)[C@@H](CC(=O)NCCN1CCOCC1)C[C@@H]2C(=O)N1CCN(C(=O)C2CC2)CC1,7%,-14%
CC(NC(=O)C(=O)NCCC1=CCCCC1)c1ccccc1 (stereo not drawn),-20%,i
CCOc1cc(C=C2C(=O)NC(=O)NC2=O)ccc1OS(=O)(=O)c1ccccc1,-18%,.
COc1cccc(C(=O)N2CCN=C2SC)c1,-10%,-9%
CCOC(=O)c1ccc(-c2cccc(-c3cc(=O)oc4cc(OC)cc(OC)c34)c2)cc1,0%,i

The results go on:
SMILES | VACV Venus inh | Vaccinia mCherry
CC1(c2ccccc2Cl)NC(=O)N(CC(=O)NCc2ccc3c(c2)OCO3)C1=O (stereo not drawn) | 0% | i
CCSC1=C(C#N)C(c2ccccc2C)CC(=O)N1 (stereo not drawn) | -2% | -14%
CC1(Oc2ccc(Cl)cc2)CCN(Cc2ccc(-c3ccccn3)cc2)C1 (stereo not drawn) | -2% | -4%
Cc1cccc(C)c1NC(=O)C(c1cccs1)N(Cc1ccco1)C(=O)Cn1nnc2ccccc21 (stereo not drawn) | -12% | .
Cc1cccc(C(=O)OCc2cc(=O)n3nc(C4CC4)sc3n2)c1 | -6% | -8%
O=C(C1=C[C@@H](c2ccc(C(F)(F)F)cc2)C[C@@H](OCc2ccc(CO)cc2)O1)N1CCN(Cc2ccccc2)CC1 | -24% | i
Cc1ccc2oc(C(F)(F)C(F)F)cc(=O)c2c1 | -6% | -14%
CC(C)C(=O)N(Cc1cc2ccccc2[nH]c1=O)C(C)(C)C | -15% | -18%
Cc1csc(NC(=O)CSc2ncnc3c2cnn3-c2ccccc2Cl)n1 | ? | ?
CCN(CC)S(=O)(=O)c1cccc(C(=O)Nc2ccccc2C(=O)Nc2ccc(OC)cc2)c1 | -6% | -5%
CCc1nn(CC(=O)NC2CC2)c(=O)c2cc3ccccc3n12 | -3% | -6%
Cn1cccc1-c1cc(C(=O)N/N=C/c2cc(Br)ccc2O)[nH]n1 | -10% | ?
Nc1nc(SCn2nnc3ccccc3c2=O)n[nH]1 | -10% | i
CCN(CC(=O)Nc1ccc(N2CCOCC2)cc1)C(=O)c1ccc(C(F)(F)F)cc1 | -15% | -10%
CSC1=N/C(=C\c2ccc(C)cc2)C(=O)S1 | -2% | .
COc1cccc(C2c3[nH]c4ccccc4c3CCN2Cc2cccc(C)n2)c1 (stereo not drawn) | 1% | i
Cc1cc2ccccc2c[n+]1C | -22% | 24%
CN(CC(=O)Nc1cccc(F)c1)C(=O)CNC(=O)Cc1cccc2ccccc12 | -18% | -27%
Cc1ccc(C)c(S(=O)(=O)N2CCN(C(=O)Cc3ccccc3)CC2)c1 | -5% | -21%
CCC(c1nnnn1Cc1ccco1)N1CCC(C(N)=O)CC1 (stereo not drawn) | -6% | -19%
NC(=O)[C@@H]1CCCN1Cc1c(C(=O)N2CCN(C3CCCCC3)CC2)nc2ccccn12 | -6% | -5%
COc1ccc(Cn2nnnc2C(c2ccccc2OC)N2CCC(C(N)=O)CC2)cc1 (stereo not drawn) | -10% | .
CCc1nc2c(OCCn3cccc3)cccn2c1N(C)C(=O)CC(C)C | 6% | 0%
COC(=O)C(CC(=O)Nc1cc(C)ccc1C)Nc1ccccc1OC (stereo not drawn) | 5% | 2%
COc1ccccc1OCC(=O)NCc1nc(-c2ccccc2)no1 | -20% | -14%
Cc1cccc(NC(=O)CN2C(=S)NC(C)(C)CC2C)c1C (stereo not drawn) | -16% | i
Cc1ccc(-n2nnnc2CNC(=O)c2ccc(Br)o2)cc1C | -13% | i
O=C(Cc1ccc(-n2cccc2)cc1)NC1CCCCC1 | -27% | .
Nc1ccccc1SC1CC(=O)N(c2ccc3c(c2)OCCO3)C1=O (stereo not drawn) | -26% | -13%
COc1cc(/C=N/NC(=S)NCC2CCCO2)cc(OC)c1OC (stereo not drawn) | 0%[7.34 µM] | i[7.34 µM]
CCOC(=O)c1sc(NC(=O)CSc2nnnn2-c2ccc(C)cc2C)nc1C | -3% | .
Cc1cc(C)n(CC(O)COc2ccc(Cl)cc2Cl)n1 (stereo not drawn) | -15% | i
